Source: PubChem BioAssay (several laboratories)
A1 inh = caspase 3/7 activation in MEF A1-2A-BIM cells, primary screen, A1 inhibitor project, cell-based, luminescence, HTS. Caspase-Glo 3/7 luminescence, 3 h; percent of clofoctol response, vehicle zero. caspase activation, % (test concentration not listed). 330,000 compounds, 0.066% hits. AID 2462, 2010;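 active = over half of replicate activation scores above 10%, or exactly half above 10 with the replicate mean above 10; inconclusive = replicate mean below 10 yet half the replicates above 10; inactive = over half of replicates below 10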;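 note: wells of about 30 µL received 50 nL stock; many hits fall short of the cut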
Calb FLC = C. albicans growth inhibition with fluconazole, primary screen, CaCi-2 strain, Alamar Blue fluorescence | C. albicans CaCi-2 (fluconazole-resistant clinical isolate) + fluconazole, 48 h | growth inhibition, % (no concentration beside the values) | 300,000 compounds, 0.57% hits | AID 1979, 2009;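 active = most replicates above 75%; inconclusive = exactly half above 75%; inactive = most below 75%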;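 note: all wells also contain fluconazole at 8 µg/ml as a sub-toxic cotreatment; 0% = median of DMSO wells and 100% = median of geldanamycin control wells; wells of about 8 µL received 7.5 nL stock; the first replicate is given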
Beta cell apopt = inhibitors of cytokine-induced beta cell apoptosis, primary screen, luminescence; 300,000 compounds, 0.8% hits; INS-1E cytokine-induced death, ATP luminescence, 48 h; percent of positive-control rescue, neutral wells zero; protection from apoptosis, % (no concentration beside the values);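 active = all replicates at 75% or more, or half of them and the mean; inconclusive = half reach 75% but not the mean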;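 note: 0% = cytokine-treated negative control wells and 100% = positive control rescue; higher means more ATP so stronger rescue from cytokine killing; wells of about 40 µL received 100 nL stock; the first replicate is given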
T cruzi inh = inhibitors of intracellular T. cruzi growth, primary screen, luminescence, NIH3T3 host cells | inhibition, % (no concentration beside the values) | T. cruzi beta-gal in NIH3T3, 90 h | 300,000 compounds, 1.4% hits | AID 1885, 2009;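 active = mean inhibition across valid replicates above about 55%, limit read from the data; inconclusive = mean below that limit but half or more replicates reach it; inactive = mean below it, under half of replicates reach it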;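 note: signal also drops with host cell toxicity which is not excluded here; 0% = plate median of DMSO wells and 100% = zero luminescence signal; higher percent means less beta-gal luminescence so fewer parasites; stock transfer was 50 nL into about 50 µL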
Vif TR-FRET = inhibitors of Vif binding to APOBEC3G peptide, primary screen, biochemical, TR-FRET, GST-Vif 1-94, biotin-A3G peptide, dose response retest (AID 1117319); Virion infectivity factor (Human immunodeficiency virus type 1 group M subtype B (isolate …; TR-FRET GST-Vif / biotin-A3G peptide binding; higher % means a stronger effect; test concentration not given here; strong numbers were not always called active; inhibition, %; hits with a dose series show IC50 in µM; 260,000 compounds, 0.57% hits;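 active = above the screen mean plus three standard deviations and confirmed in dose response; inconclusive = results disagree or hit not tested in dose response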;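 note: Vif residues 1-94 fused to GST binding biotinylated APOBEC3G peptide 110-148; 0% = full assay without inhibitor and 100% = GST in place of GST-Vif; retest series ran down from 100 µM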
MLL AF4-AF9 inh = inhibitors of AF4 peptide binding to AF9, primary screen, biochemical, AlphaScreen, biotin-AF4 peptide, FLAG-AF9, single point; inhibition, % at 10 µM; 350,000 compounds, 0.47% hits;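 active = every replicate reaching a set inhibition limit, whatever the replicate mean, cut at about 25% in these data; inconclusive = mean inhibition reaches that limit but some replicates miss it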;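 note: 0% = plate neutral control median and 100% = total signal loss; the record names both 10 and 1 µM as test concentration; the first replicate is given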
Target sequence (P42568 whole entry, looked up): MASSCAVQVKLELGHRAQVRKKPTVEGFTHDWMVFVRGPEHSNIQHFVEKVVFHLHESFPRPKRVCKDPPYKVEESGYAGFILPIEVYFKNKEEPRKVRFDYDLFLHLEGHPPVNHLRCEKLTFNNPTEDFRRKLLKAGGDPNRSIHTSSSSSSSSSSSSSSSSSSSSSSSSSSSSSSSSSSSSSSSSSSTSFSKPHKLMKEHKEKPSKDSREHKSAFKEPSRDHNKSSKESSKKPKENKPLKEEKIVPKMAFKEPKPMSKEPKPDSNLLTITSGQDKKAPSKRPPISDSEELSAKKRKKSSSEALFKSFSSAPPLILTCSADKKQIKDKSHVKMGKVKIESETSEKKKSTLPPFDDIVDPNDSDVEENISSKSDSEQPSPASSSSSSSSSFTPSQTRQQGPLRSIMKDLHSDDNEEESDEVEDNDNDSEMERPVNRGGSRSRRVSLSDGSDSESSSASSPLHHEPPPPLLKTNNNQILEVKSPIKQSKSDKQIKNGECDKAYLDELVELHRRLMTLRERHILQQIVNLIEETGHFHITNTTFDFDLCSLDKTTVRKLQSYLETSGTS
Ecoli rRNA inh = reduced GFP signal of wild-type E. coli, primary screen, bacterial rRNA inhibitor project, GFP/RFP fluorescence, OD600, single point | E. coli WT GFP vs humanized-ribosome RFP mutants, 24 h; active compounds read low; DMSO median 0, no signal -100 | GFP signal change (wild-type ribosome), % (concentration not given with the values) | 350,000 compounds, 1.6% hits;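 active = significant combined selectivity score with lowered wild-type GFP, culture density cut under 30%, mutant RFP and density less affected; inactive = any of these conditions unmet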; note: one replicate is shown; some compounds called inactive have numbers as strong as hits
RanGTP-Impb inh = inhibitors of RanGTP-importin-beta interaction, primary screen, biochemical, FRET, CFP-Ran, YFP-importin-beta, homogeneous; Ran GTPase (GTP-bound) - importin-beta complex; cell-free CFP-Ran/YFP-importin-beta FRET ratio; inhibition, % (concentration not given with the values); 300,000 compounds, 1.1% hits; AID 2216, 2009;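 active = most replicates above 15%; inconclusive = exactly half above 15%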;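 note: 0% = DMSO wells and 100% = Ran loaded with GDP instead of GTP; wells of about 40 µL received 100 nL stock; the first replicate is given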
Ecoli rRNA inh OD600 = recorded beside Ecoli rRNA inh, whose call it bears; OD600 change, %; measured here: OD600 growth;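 optical density of the mix in the first replicate; 0 = DMSO median and -100 = no signal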
Ecoli rRNA inh RFP = further read-out of Ecoli rRNA inh, marked with its call; RFP signal change, %; measured here: RFP humanized mutant strains;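 first replicate; 0 = DMSO median and -100 = no signal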
* marks the source's active call; other numbers are inactive results; ? = inconclusive; / = no result given. Some of the compounds tested. The share of hits here may be higher or lower than overall.

SMILES	A1 inh	Calb FLC	Beta cell apopt	T cruzi inh	Vif TR-FRET	MLL AF4-AF9 inh	Ecoli rRNA inh	Ecoli rRNA inh OD600	Ecoli rRNA inh RFP	RanGTP-Impb inh
CCOc1ccc(-c2nc(N)ncc2-c2ccc(OC)cc2)c(O)c1	-0.8	-4	-11	27	5%	/	/	/	/	1.8
COc1ccccc1NC(=O)Cc1ccc(-c2ccccc2)cc1	-0.2	-4	3	14	/	1.3	0	-36	3.2	-0.9
COc1ccc(-c2ccc3sc4ccccc4c(=O)c3c2)cn1	-0.2	4	5	-6	/	-3.4	3	4	2.0	0.6
CC/C(Cc1ccccc1)=N/NC(=O)CNC(=O)c1ccc(Cl)cc1Cl	/	1	/	8	-13%	-20	3	12	2.2	?
COC(=O)c1ccc(COc2ccccc2/C=C(\C#N)C(=O)Nc2c(C)cc(C)cc2C)cc1	0.1	?	22	47	23µM*	8.0	12	10	-13	-0.1
CC(=O)O[C@@H]1[C@@H](O)[C@@H](O)[C@H](Oc2c(-c3ccc(O)cc3)oc3c(CC=C(C)C)c(O)cc(O)c3c2=O)O[C@H]1C	0.2	1	-3	8	/	/	/	/	/	2.8
C1CN(c2nc(N3CCOCC3)nc(N3CCOCC3)n2)CCO1	-0.2	19	-2	-5	/	/	/	/	/	2.1
O=C(CCCOc1ccc(Cl)cc1Cl)NCCCO	1.0	-5	5	3	-3%	/	/	/	/	1.2
Cc1cc(C)cc(NC(=S)N2CCN(CCO)CC2)c1	0.2	36	-9	-17	-2%	/	/	/	/	-1.7
O=c1[nH]c2ccccc2nc1/C=C/c1ccc(Cl)cc1	-0.5	6	2	-5	0%	1.5	17	17	2.0	23*
O=C(Nc1ccc(N2CCOCC2)cc1)c1ccc(Cl)cc1N1CCCC1=O	2.5	/	-13	/	/	-0.1	14	9	0.9	/
CCN1CCN(c2ccc(S(=O)(=O)N3CCCCC3)cc2NC(=O)c2ccc(C)o2)CC1	-0.2	3	8	55*	-2%	/	/	/	/	-1.3
Cc1cnn(CCC(=O)NNC(=S)Nc2ccccc2)c1	0.6	-1	-7	-13	11%	/	/	/	/	1.1
COCCn1nnnc1C(c1cccc(C(F)(F)F)c1)N1CCN(Cc2ccccc2)CC1 (stereo not given)	-0.1	-12	7	11	4%	/	/	/	/	-2.1
COC(=O)Nc1ccc(S(=O)(=O)N2CCCC(C(=O)N3CCN(C)CC3)C2)cc1 (stereo not given)	-0.3	0	-1	-7	6%	3.5	6	5	1.2	-3.9
CCCCCCCSc1nc(N)cc(=O)[nH]1	-0.1	103*	-10	-43	-4%	/	/	/	/	?
O=C(CSc1nc2ncccc2[nH]1)NCc1ccco1	0.3	4	-1	-17	9%	-4.7	3	-2	1.4	-3.2
C=CCOc1ccc(/C=C/C(=O)OCC(=O)N(C)CC(=O)Nc2ccccc2Cl)cc1	-0.6	-5	-1	0	4%	-2.1	0	1	0.5	-0.4
Cc1c(C(=O)Nc2ccc(S(=O)(=O)N(C)C3CCN(C)CC3)cc2)oc2c(Cl)cccc12	-0.6	-1	/	59*	-2%	15	-29	-34	22	0.3
Cc1oc2c(c1C(=O)NCc1ccccc1)CCCC2	-0.2	10	/	4	1%	/	/	/	/	?
CCOC(=O)C1CCCN(C(=O)Cn2cccc2C(=O)c2ccccc2)C1 (stereo not given)	-0.1	-5	-9	-13	1%	/	/	/	/	2.6
COc1ccc(NC(=O)CN(c2c(C)cccc2C)S(C)(=O)=O)cc1	1.0	11	/	-7	5%	-3.5	2	0	-0.5	-1.6
COC(=O)c1ccc(COC(=O)c2cc3ccccc3oc2=O)cc1	0.1	10	/	-20	/	-13	5	6	-0.7	1.8
COc1cc(NS(=O)(=O)c2ccc3c(c2)oc(=O)n3C)cc(OC)c1OC	-0.9	-1	3	-7	2%	0.7	7	8	-1.3	-3.4
COc1ccccc1CNC(=O)c1cc(-c2ccccc2C)n(CC2CC(c3cccc([N+](=O)[O-])c3)=NO2)n1 (stereo not given)	-0.3	/	4	/	/	1.9	5	4	-4.6	/
The list continues.
SMILES	A1 inh	Calb FLC	Beta cell apopt	T cruzi inh	Vif TR-FRET	MLL AF4-AF9 inh	Ecoli rRNA inh	Ecoli rRNA inh OD600	Ecoli rRNA inh RFP	RanGTP-Impb inh
O=C(O)c1nccnc1C(=O)N1CCN(c2ccccc2)CC1	0.6	-1	-2	-8	7%	-5.9	22	11	-4.0	1.7
CCOc1ccccc1/C=C/c1onc(C)c1S(=O)(=O)N1CCC(C(=O)NC(C)(C)C)CC1	-1.3	10	4	31	/	2.6	-1	7	3.2	5.9
COc1ccc(O)c(C(=O)c2cc(C#N)c(=O)n(CC3CCCO3)c2)c1 (stereo not given)	-0.3	-1	-10	-6	7%	/	/	/	/	-15
CCN(CC)c1nc(N(CC)CC)[nH]c(=O)n1	-0.6	-5	6	-7	1%	/	/	/	/	0.1
CC1CCCCC1n1c(-c2cccnc2)n[nH]c1=S (stereo not given)	-0.3	-4	3	5	4%	-0.5	2	2	0.9	4.3
CC(C)CC(=O)Nc1nnc(SCC(=O)NCC2CCCO2)s1 (stereo not given)	1.1	-7	-4	3	24%	-1.0	11	8	2.0	2.8
COCCn1c(SCC(=O)Nc2ccccc2C(F)(F)F)nc2ccccc2c1=O	-0.2	0	0	7	/	-2.7	13	10	2.2	-0.4
CCc1nnc(NC(=O)CSc2ccc(Cl)cc2)s1	-0.4	1	-7	-23	/	-5.7	7	7	0.5	-0.8
COc1ccc(C(=O)O)cc1NCc1ccc(C)s1	0.3	-2	-2	-1	0%	2.5	-3	-2	0.3	0.5
CCCCCCCCNc1ncnc2ccccc12	-0.4	76*	101*	26	70%	/	/	/	/	1.5
O=C(COC(=O)c1ccc(Cl)nc1)NCCc1ccc(Cl)cc1	-1.1	/	-7	/	9%	-1.3	4	8	5.5	/
CC1=Nc2cc(C(=O)NCC3CCCO3)ccc2Sc2ccc(Br)cc21 (stereo not given)	1.1	4	13	9	27%	4.9	-22*	-13*	4.9*	-0.4
Cc1ccc(S(=O)(=O)N(C)c2cc(S(=O)(=O)Nc3ccncc3)c(C)cc2C)cc1	-0.4	30	-10	-1	26%	/	/	/	/	3.3
CCOc1ccc(N=C2NC(=O)/C(=C/C(=O)OC)S2)cc1	0.0	1	/	-4	-8%	/	/	/	/	-3.6
CCCCc1ccc(NC(=O)CSc2nnc(C)c(=O)n2N)cc1	0.1	-5	-8	9	/	0.2	-17	-19	-2.9	0.5
O=C(O)c1cc2c(=O)c3ccccc3oc2nc1C(F)(F)F	0.4	0	-8	-3	2%	-1.2	9	8	-0.7	3.1
COc1ccc(S(=O)(=O)N2CCOCC2)cc1NC(=O)CC1CC2CCC1C2 (stereo not given)	0.7	/	6	/	/	-7.3	6	14	-0.9	/
O=C(CN1CCC(n2nnc3cc(F)ccc32)CC1)NCCc1nc2ccccc2[nH]1	-0.6	5	1	-3	21%	/	/	/	/	2.9
CC(=O)Nc1cccc(-c2nc3ccc(NC(C)=O)cc3s2)c1	-3.3	6	-3	-7	/	0.3	-32	-38	-8.7	-1.3
Cc1ccc(OCCn2cc(/C=N/NC(=O)c3ccncc3)c3ccccc32)cc1	1.1	9	-3	-9	3%	/	/	/	/	-2.9
CSCCC(NS(=O)(=O)c1cccs1)C(=O)NCc1ccccc1 (stereo not given)	-0.6	-30	-2	5	5%	-2.9	1	-1	-7.7	0.5
C[C@@H](C(=O)N[C@@H](Cc1ccccc1)C(=O)O)n1nnc2ccccc2c1=O	-0.1	-10	-4	1	-5%	-8.6	6	6	-0.7	0.7
O=C(c1ccc(N2CCN(C3CC(=O)N(Cc4cccs4)C3=O)CC2)cc1)c1cccnc1 (stereo not given)	0.5	0	-5	-1	-4%	-17	-11	-17	1.0	4.3
CCCCn1c(N)c(N(CCOC)C(=O)COC(=O)CSc2cc(C)c3ccccc3n2)c(=O)[nH]c1=O	0.4	-3	-4	-14	-4%	-6.5	-5	-7	-0.8	0.7
Cc1noc(C)c1C(=O)Nc1ccccc1C(=O)NCCc1ccccc1	-0.1	4	-1	0	-4%	-8.7	-3	-13	0.3	-3.5
More records
SMILES	A1 inh	Calb FLC	Beta cell apopt	T cruzi inh	Vif TR-FRET	MLL AF4-AF9 inh	Ecoli rRNA inh	Ecoli rRNA inh OD600	Ecoli rRNA inh RFP	RanGTP-Impb inh
Fc1ccc(-n2cc(-c3ccccc3)[n+]3c2SCC3)cc1	-0.3	10	17	4	-6%	-1.3	18	7	18	5.6
Cc1c(C(=O)NCc2ccco2)oc2ccc(S(=O)(=O)N3CCC4(CC3)OCCO4)cc12	0.1	-6	/	8	-4%	/	/	/	/	-0.1
CCOC(=O)N1CCN(C(=O)Cc2cccc3ccccc23)CC1	1.2	2	-2	-4	6%	-9.1	8	0	1.6	2.3
Fc1ccc(CNC(=S)Nc2ccc(Cl)cc2Cl)cc1	0.0	0	0	4	?	/	/	/	/	1.6
O=C(NCc1ccco1)c1cc(S(=O)(=O)N2CCCCC2)ccc1Cl	?	/	-1	/	2%	0.3	2	4	0.4	/
O=C(CSc1nnc(COc2ccc(Cl)cc2)o1)NC1CCCCC1	-0.3	-17	/	3	-1%	-0.3	0	7	3.2	4.7
COc1cccc(OC)c1C(=O)Nc1ccccc1C(=O)N1CCCC1	-0.3	-5	-5	-12	/	-1.5	13	14	-1.0	0.0
Cn1nc(C(F)(F)F)c(-c2ccc(Br)cc2)c1NC(=O)c1cccnc1	0.1	14	1	0	5%	/	-44*	-20*	-6.9*	0.8
O=C(CSC1CC(=O)N(CCc2ccccc2)C1=O)Nc1ccc(Br)cc1 (stereo not given)	-0.9	-6	-8	25	-4%	/	/	/	/	6.9
O=C(CSc1nc2nn(-c3ccccc3)c(=O)c-2c2n1CCCCC2)Nc1ccc(OC(F)F)cc1	1.8	/	4	/	-1%	3.1	0	-3	0.4	/
O=C(Nc1ccccc1)c1n[nH]c(Cn2cncn2)n1	-2.0	-22	-4	-17	3%	/	/	/	/	-3.5
O=[N+]([O-])c1ccc(CSc2nc3ccccc3[nH]2)cc1	-4.2	-1	-1	7	/	6.3	3	7	8.5	-14
Cc1cc(C)n2nc(Sc3ncccc3[N+](=O)[O-])nc2n1	0.4	-3	-17	-10	/	-11	18	4	-1.8	1.7
